ERAP1 HTS inh – human ERAP1 aminopeptidase inhibitors, primary screen, biochemical, single point, plate reader | Endoplasmic reticulum aminopeptidase 1 (Homo sapiens), Q9NZ08 | recombinant ERAP1, Leu-AMC fluorescence, 60 min | inhibition, % at 10.7 µM | 0.15% of 340,000 active | AID 652197, 2013;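 active means mean replicate inhibition of at least 30%, or all replicates individually reaching that 30% level; inactive means mean below 30% and not every replicate reaching it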;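 further: 0% = neutral control wells and 100% = L-leucinethiol positive control wells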
Xi reactivation – activators of inactive X chromosome reactivation, primary screen, imaging, XiGFP fibroblasts, GFP high-content imaging, set 2; 0.055% of 360,000 active; activation, % at 7.58 µM; XiGFP mouse fibroblasts, % GFP-positive cells imaging, 3 d; cells co-treated with 5-aza-dC sensitizer; scaled so ellipticine positive control = 100%;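 active means mean normalized replicate activation at least 10% and every replicate at or above 10%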;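 further: 0% = median of on-plate neutral control wells and 100% = ellipticine 6 µM median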
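Assay system – SV40-immortalized XiGFP fibroblast cells, line 68-5-11 · Buffer or medium – DMEM supplemented with 5-aza-dC as sensitizing agent · Dosing – one concentration, pinned · Benchmarks – positive control ellipticine, 6 µM final · Times – 3 days compound exposure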
RAD52 anneal inh – RAD52 DNA annealing inhibitors, primary screen, biochemical, FRET, single point, set 2 | DNA repair protein RAD52 homolog (Homo sapiens), P43351 | recombinant RAD52 DNA annealing, FRET fluorescence | inhibition, % at 18.7 µM | 0.46% of 360,000 active;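 active means every replicate showing at least 50% inhibition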
GSIS activator – GLuc luminescence reporter in INS-1E cells, primary screen for activators of glucose-dependent secretion of insulin | INS-1E GLuc reporter insulin secretion, 2-3 h | 0.61% of 370,000 active | activation, % at 16.6 µM;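 active means lowest replicate activation of at least 40%, so every replicate reaches that level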;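 further: 0% = median of neutral control wells and 100% = median of IBMX positive control wells; some compounds called inactive have numbers as strong as hits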
F508del corr – F508del CFTR correction, initial screen, CFBE line, single point. 0.36% of 350,000 active. activity (quench increase), % at 7.58 µM. CFBE cells, YFP halide quenching; stimulated with forskolin plus potentiator P3; % fluorescence drop versus neutral controls. AID 720511, 2013;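 active means mean added fluorescence quench of at least 8% versus neutral control, with both replicates also reaching 8%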;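 further: cells transiently co-express mutant CFTR-F508del with the halide-sensitive YFP; corrector assay measuring rescue of mutant channel to the surface after 24 h compound exposure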
esBAF inh – Bmi1 luciferase reporter increase in mESCs, primary screen, esBAF inhibitor project, mouse ES cells, Bmi1 luciferase knock-in, single point; AID 602393, 2012; 24 h; 100% = twice the neutral-well signal; 2% of 350,000 active; reporter increase, % at 12.5 µM; in the data active means activation above about 40%;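 further: 0% = median of the plate's neutral control wells and 100% = double that signal; a rise in the Bmi1 reporter signal indicates esBAF inhibition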
RAD54 branch – inhibitors of human RAD54 branch migration, primary screen, biochemical, fluorescence, single point; RAD54 Holliday junction branch migration, FAM/BHQ fluorescence; DNA repair and recombination protein RAD54-like (Homo sapiens), Q92698; 0.14% of 360,000 active; inhibition, % at 10.4 µM; AID 602329, 2012;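 active means mean normalized replicate activity at least 40 and at least half of replicates scoring 40 or more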;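 further: 0% = median of neutral control wells and 100% = median of positive control wells; inhibitors cause a drop in the FAM fluorescence signal; in these data hits start at about 50%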
Target sequence (Q92698 whole entry, looked up): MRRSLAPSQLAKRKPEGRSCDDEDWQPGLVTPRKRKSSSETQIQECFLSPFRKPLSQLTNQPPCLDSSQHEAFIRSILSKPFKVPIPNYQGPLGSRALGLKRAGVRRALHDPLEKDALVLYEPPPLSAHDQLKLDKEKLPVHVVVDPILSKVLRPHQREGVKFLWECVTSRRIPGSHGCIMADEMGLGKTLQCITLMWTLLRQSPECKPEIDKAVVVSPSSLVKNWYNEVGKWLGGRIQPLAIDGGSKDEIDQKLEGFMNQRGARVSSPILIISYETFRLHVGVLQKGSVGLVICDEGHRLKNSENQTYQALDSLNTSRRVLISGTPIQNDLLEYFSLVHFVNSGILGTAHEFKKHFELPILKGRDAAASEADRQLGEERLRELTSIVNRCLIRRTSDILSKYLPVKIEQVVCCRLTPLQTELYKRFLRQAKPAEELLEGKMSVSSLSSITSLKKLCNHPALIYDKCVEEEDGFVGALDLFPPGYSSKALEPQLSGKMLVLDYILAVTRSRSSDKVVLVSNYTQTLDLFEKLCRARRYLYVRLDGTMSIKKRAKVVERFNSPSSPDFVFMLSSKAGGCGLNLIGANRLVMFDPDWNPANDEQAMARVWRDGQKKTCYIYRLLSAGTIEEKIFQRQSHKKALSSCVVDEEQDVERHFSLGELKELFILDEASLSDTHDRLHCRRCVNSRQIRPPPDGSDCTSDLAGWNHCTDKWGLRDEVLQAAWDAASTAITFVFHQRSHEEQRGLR
* marks the source's active call; other numbers are inactive results; · = not tested or not shown; & = joins results of further samples. A portion of the library; count on the stated rates, not on these rows.

Values run as follows: ERAP1 HTS inh	Xi reactivation	RAD52 anneal inh	GSIS activator	F508del corr	esBAF inh	RAD54 branch
> COc1cc(C(C)=O)ccc1OCC(=O)N1CCc2ccccc2C1
 : 1	0.5	-11	-1	-1.0	-5	-9
> CC(=O)Nc1cc2c(cc1NC(=O)c1cnccn1)OCCO2
 : ·	·	·	·	·	-1	-7
> Cc1cc(C(C)(C)C)c(OC(=O)[C@@H]2OC(c3ccccc3)=C[C@H]2c2ccccc2)c(C(C)(C)C)c1
 : 2	0.0	0	-11	0.9	-5	3
> CCNC(=O)Nc1ccc2c(c1)C(=O)N(C)[C@@H]1CC[C@@H](CC(=O)N[C@@H](C)c3ccccc3)O[C@@H]1CO2
 : 2	-0.1	8	-7	·	-5	1
> CCOc1ccccc1-n1cnc(C#N)c1N
 : -2	-0.3	9	-3	-1.0	·	·
> CC(C)NC(=O)N1[C@@H](CO)[C@@H]2c3ccccc3NC[C@@H]21
 : 6	0.1	19	16	-2.8	0	-1
> COc1cc(/C=C2\CCCc3c2nc2ccccc2c3C(=O)O)cc(OC)c1O
 : 13	0.3	-21	-4	-0.1	·	-10
> O=C1NC[C@@H](c2ccccc2)OC(=O)[C@@H](Cc2ccc(F)cc2)CC/C=C/C[C@H]1CC(=O)N(CCO)Cc1ccccc1
 : 1	0.1	-2	-48	2.7	1	4
> C[C@H](CO)N1C[C@H](C)[C@H](CN(C)C(=O)Nc2ccc(C(F)(F)F)cc2)Oc2ccc(NC(=O)Nc3cccc4ccccc34)cc2C1=O
 : -2	0.2	2	-28	2.2	5	7
> CCOC1(NC(=O)c2ccccc2)C(C)=CC(=O)C=C1C
 : ·	·	·	·	·	-4	-17
> O=C1CCC/C(=N/NC(=O)c2ccc(NS(=O)(=O)c3cccs3)cc2)C1
 : -3	-0.1	-4	-17	-1.4	-6	-2
> CC1CCN(C(=O)CCCNC(=O)Cn2cnc3sc4c(c3c2=O)CCCC4)CC1
 : ·	·	·	·	·	-6	3
> Cc1nn(-c2ccccc2)c2[nH]c(=O)c(CNCc3ccc4c(c3)OCO4)cc12
 : ·	·	·	·	·	-3	-7
> O=C(N/N=C/c1ccccn1)c1c[nH]c2ccccc12
 : ·	0.1	-32	-22	1.7	·	·
> CC=Cc1ccc2n(c1=O)C[C@H]1[C@H](CO)[C@@H](C(=O)NC3CCC3)[C@@H]2N1S(=O)(=O)c1cn(C)cn1 (mixture of isomers)
 : 0	0.3	3	9	·	9	1
> CN(C)CCCN(C(=O)c1ccc(Br)s1)c1nc2cc3c(cc2s1)OCCO3
 : 7	0.0	68*	-21	0.1	12	26
> COCC(=O)N(C)C[C@@H]1Oc2cc(C#Cc3cccnc3)ccc2S(=O)(=O)N([C@@H](C)CO)C[C@H]1C
 : -3	0.2	3	14	2.0	-1	0
> Cc1cc(C(=O)N/N=C/c2ccc([N+](=O)[O-])o2)c(C)o1
 : 0	0.4	-6	-18	-4.8	·	·
> COc1cccc(NC(=O)c2cc([N+](=O)[O-])ccc2NC(=O)CNCC2CCCO2)c1 (stereo unspecified)
 : 8	0.0	-7	5	·	·	·
> COC(=O)C(C)n1cnc2c(nnn2-c2ccccc2)c1=O (stereo unspecified)
 : ·	·	·	·	·	5	-12

Three entries from above, ordered by their value in F508del corr, highest first.
Structure,F508del corr
C[C@H](CO)N1C[C@H](C)[C@H](CN(C)C(=O)Nc2ccc(C(F)(F)F)cc2)Oc2ccc(NC(=O)Nc3cccc4ccccc34)cc2C1=O,2.2
COc1cc(/C=C2\CCCc3c2nc2ccccc2c3C(=O)O)cc(OC)c1O,-0.1
CCOc1ccccc1-n1cnc(C#N)c1N,-1.0

A stretch from further up:
Values run as follows: ERAP1 HTS inh	Xi reactivation	RAD52 anneal inh	GSIS activator	F508del corr	esBAF inh	RAD54 branch
> COc1cc(C(C)=O)ccc1OCC(=O)N1CCc2ccccc2C1
 : 1	0.5	-11	-1	-1.0	-5	-9
> CC(=O)Nc1cc2c(cc1NC(=O)c1cnccn1)OCCO2
 : ·	·	·	·	·	-1	-7
> Cc1cc(C(C)(C)C)c(OC(=O)[C@@H]2OC(c3ccccc3)=C[C@H]2c2ccccc2)c(C(C)(C)C)c1
 : 2	0.0	0	-11	0.9	-5	3
> CCNC(=O)Nc1ccc2c(c1)C(=O)N(C)[C@@H]1CC[C@@H](CC(=O)N[C@@H](C)c3ccccc3)O[C@@H]1CO2
 : 2	-0.1	8	-7	·	-5	1

(cont.)
Values run as follows: ERAP1 HTS inh	Xi reactivation	RAD52 anneal inh	GSIS activator	F508del corr	esBAF inh	RAD54 branch
> CN(CCC#N)CC(=O)Nc1ccc(NC(=O)CN(C)CCC#N)cc1
 : ·	·	·	·	·	17	-11
> O=C1CNC(=S)N1Cc1cccc(Cl)c1
 : -1	0.1	-5	-12	1.9	10	5
> C[C@H]1CN([C@@H](C)CO)C(=O)c2cc(-c3cncnc3)cnc2O[C@@H]1CN(C)C(=O)c1ccccc1F
 : 1	-0.7	6	11	-0.1	15	1
> C/C(=N\NC(=O)c1ccc(NS(=O)(=O)c2cccs2)cc1)c1ccccc1
 : 4	-0.2	-16	-11	·	·	·
> CCOC(=O)C1CCN(C(=O)c2ccc(CNS(=O)(=O)c3ccc(OC)cc3)cc2)CC1
 : 2	-0.1	2	-12	0.9	·	·
> Cc1cc(C)n(S(=O)(=O)c2ccc(Cl)cc2)n1
 : -1	0.1	-9	19	-5.6	0	-6
> COc1ccc(C2SC[C@@H](C(=O)O)N2C(C)=O)cc1 (stereo partly specified)
 : ·	·	·	·	·	-6	3
> CCSc1nnc(NC(=O)C2CCCCC2C(=O)O)s1 (stereo unspecified)
 : ·	-0.1	·	16	·	·	·
> Cc1ccccc1OCc1nc(-c2ccc(NC(=O)c3ccc4c(c3)OCO4)cc2)no1
 : ·	·	·	·	·	28	3
> O=C(Nc1ccccc1)c1cccc(S(=O)(=O)NCc2ccco2)c1
 : ·	·	·	·	·	·	-1
> CC(=O)CSc1nnc(-c2ccco2)n1-c1ccccc1
 : 2	0.1	-13	3	-1.3	-5	4
> O=C(Nc1cccc(-c2nnc(-c3ccccc3)o2)c1)c1ccco1
 : ·	·	·	·	·	11	1
> CC(=O)c1cc(-c2ccccc2)n(CC(=O)N2CCC(C)CC2)c1C
 : 6	·	-15	·	1.1	8	-6
> COc1ccc(NC(=O)N(C)C[C@H]2Oc3ccc(NS(=O)(=O)c4cn(C)cn4)cc3C(=O)N([C@H](C)CO)C[C@@H]2C)cc1
 : 1	-0.8&0.0	13&-8	6&1	-3.3&2.0	3&-3	-7&7
> CN(Cc1c(F)cccc1Cl)C(=O)c1cnc2ccccc2n1
 : 5	0.1	-9	29	1.3	15	-9
> O=C(N/N=C/c1ccccn1)c1cccc(NC(=O)c2ccc(Cl)cc2)c1
 : -2	0.0	-11	4	3.0	15	-19
> Cc1cc(NC(=O)CSc2nnc(Cc3ccccc3)o2)no1
 : ·	·	·	1	·	-13	2
> CC1(C)CC(NC(=O)c2cc(COc3cccc(C(F)(F)F)c3)on2)CCO1 (stereo unspecified)
 : 2	0.0	-6	-25	0.2	26	-6
> C/C(=N\Nc1nc2ccccc2[nH]1)c1ccc(N2CCOCC2)cc1
 : -7	-0.1	-2	-12	4.0	·	·
> Cc1oc(-c2ccc(Cl)cc2)cc1C(=O)/C(C#N)=C/Nc1cccc(OC(F)(F)F)c1
 : 2	0.0	-31	·	-3.0	·	·

Later entries.
Values run as follows: ERAP1 HTS inh	Xi reactivation	RAD52 anneal inh	GSIS activator	F508del corr	esBAF inh	RAD54 branch
> Cc1cc(NC(=O)CC(C)C)c(=O)n(Cc2ccccc2F)c1
 : 1	0.1	-5	·	-0.2	-1	-1
> Cc1cc(C)c(NC(=O)C2CCCCN2C)c(C)c1 (stereo unspecified)
 : ·	·	·	·	·	3	-4
> O=C(CSc1nnc(-c2ccc([N+](=O)[O-])cc2)o1)Nc1ccccn1
 : 3	-0.5	-8	3	1.1	·	·
> Cc1cc(NC(=O)CSc2ccccc2)no1
 : ·	·	·	·	·	-3	0
> Cc1nnc(NC(=O)CCC(=O)NC2CCCCCCC2)s1
 : -1	0.0	1	-3	-1.2	·	·
> Cc1ccc(C(=O)N/N=C\c2ccc([N+](=O)[O-])s2)cn1
 : -1	0.0	-16	-7	·	·	·
> Cc1ccc(NC(=O)C2CC(Cl)=CCC2C(=O)O)c([N+](=O)[O-])c1 (stereo unspecified)
 : 0	-0.1	-7	·	-2.0	·	·
> COc1ccc(C(=O)COC(=O)c2nn(C)cc2Cl)cc1
 : -3	0.1	-12	2	3.2	26	9
> Cc1ccccc1NC(=O)c1ccc2c(O)c(S(=O)(=O)c3ccccc3)c(=O)[nH]c2c1
 : -3	0.1	0	-4	2.4	-5	-18
> Cc1sc2ncnc(SCC(=O)N3CCN(C(=O)c4ccco4)CC3)c2c1C
 : -7	·	-8	-18	-0.8	5	-7
> Cc1cc(NC(=O)CSc2nnc(CNC(=O)c3ccc(F)cc3)o2)no1
 : 4	-0.1	-11	11	3.4	·	5
> CCc1ccccc1NC(=O)c1ccc2c(O)c(S(=O)(=O)c3ccc(OC)cc3)c(=O)[nH]c2c1
 : 1	0.2	-3	24	1.4	-6	0
> N#Cc1ccccc1CSc1nc(O)cc(=O)[nH]1
 : ·	·	·	·	·	2	11
> Cc1ccccc1CN1CCNC(=O)C1CC(=O)NCCC1=CCCCC1 (stereo unspecified)
 : 1	-0.1	-74	-1	0.0	2	2
> CCc1n[nH]c(=S)n1/N=C/c1cc(Br)c(OC)cc1OC
 : ·	0.4	·	-3	·	·	·
> COc1ccccc1NC(=O)C1=C(C)Nc2nnnn2C1c1ccncc1 (stereo unspecified)
 : ·	·	·	·	·	-6	-5
> CCNC(=O)Nc1ccc2c(c1)C(=O)N(C)[C@@H]1CC[C@H](CC(=O)N[C@@H](C)c3ccccc3)O[C@H]1CO2
 : 2	0.6	3	3	·	-4	2
> CN(C)c1ccc2c(c1)[C@H]1C[C@H](CC(=O)NCc3cc(F)ccc3F)O[C@@H](CO)[C@H]1O2
 : -1	-0.1	-19	-5	-5.0	-3	-20
> O=C1Nc2cc(C(=O)N3CCc4ccccc4C3)ccc2S/C1=C\c1ccccc1
 : ·	-0.1	·	-10	·	-11	2
> Cc1nnc(SCC2=C(C(=O)O)N3C(=O)[C@@H](NC(=O)Cn4cnnn4)[C@H]3SC2)s1
 : 3	·	-4	-1	-2.6	2&-2	-3&10
> Cc1ccc2cc(C#N)c(NCCNC(=S)NCCCN3CCOCC3)nc2c1
 : ·	0.0	18	3	0.5	·	·
> COc1ccc(-c2ccc(-c3nnc(-c4cc(OC)ccc4OC)o3)cc2)cc1
 : ·	·	·	·	·	3	-6
> COc1ccc(/C(O)=C2\C(=O)C(=O)N(c3cc(C)on3)C2c2ccc(OC)c(OC)c2)cc1OC (stereo unspecified)
 : ·	·	·	·	·	-3	-2

Taken from above:
Result of CCc1n[nH]c(=S)n1/N=C/c1cc(Br)c(OC)cc1OC in GSIS activator: -3
Result of Cc1cc(NC(=O)CSc2ccccc2)no1 in RAD54 branch: 0

Screening data as filed in PubChem BioAssay.
